Vif TR-FRET – inhibitors of Vif binding to APOBEC3G peptide, primary screen, biochemical, TR-FRET, GST-Vif 1-94, biotin-A3G peptide, dose response retest (AID 1117319). inhibition, %; hits with a dose series show IC50 in µM. 260,000 tested, 0.57% active. TR-FRET GST-Vif / biotin-A3G peptide binding; higher % means a stronger effect; test concentration not given here; strong numbers were not always called active;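 active = above the screen mean plus three standard deviations and confirmed in dose response; inconclusive = results disagree or hit not tested in dose response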;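 note: Vif residues 1-94 fused to GST binding biotinylated APOBEC3G peptide 110-148; 0% = full assay without inhibitor and 100% = GST in place of GST-Vif; retest series ran down from 100 µM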
T cruzi repl – T. cruzi replication inhibition | T. cruzi beta-gal in NIH3T3, luminescence, 90 h | inhibition, % (test concentration not listed) | 300,000 tested, 1.4% active | AID 1885;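 active = mean inhibition across valid replicates above about 55%, limit read from the data; inconclusive = mean below that limit but half or more replicates reach it; inactive = mean below it, under half of replicates reach it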;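 note: signal also drops with host cell toxicity which is not excluded here; 0% = plate median of DMSO wells and 100% = zero luminescence signal; higher percent means less beta-gal luminescence so fewer parasites; stock transfer was 50 nL into about 50 µL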
Bfl-1 A1 inh – inhibitors of the anti-apoptotic protein A1, read as caspase activation; 330,000 tested, 0.066% active; AID 2462; caspase activation, % (no concentration beside the values); MEF A1-2A-BIM cells, Caspase-Glo 3/7 luminescence, 3 h; percent of clofoctol response, vehicle zero;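 active = over half of replicate activation scores above 10%, or exactly half above 10 with the replicate mean above 10; inconclusive = replicate mean below 10 yet half the replicates above 10; inactive = over half of replicates below 10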;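 note: wells of about 30 µL received 50 nL stock; many hits fall short of the cut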
RanGTP-Imp inh – disruptors of Ran-importin-beta complex formation – biochemical, FRET, CFP-Ran, YFP-importin-beta, homogeneous, primary screen; cell-free CFP-Ran/YFP-importin-beta FRET ratio; inhibition, % (test concentration not listed); 300,000 tested, 1.1% active; AID 2216;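 active = most replicates above 15%; inconclusive = exactly half above 15%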;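 note: 0% = DMSO wells and 100% = Ran loaded with GDP instead of GTP; wells of about 40 µL received 100 nL stock; the first replicate is given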
Beta cell apopt – beta cell apoptosis inhibition; INS-1E cytokine-induced death, ATP luminescence, 48 h; percent of positive-control rescue, neutral wells zero; protection from apoptosis, % (concentration not given with the values); 300,000 tested, 0.8% active; AID 435005;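 active = all replicates at 75% or more, or half of them and the mean; inconclusive = half reach 75% but not the mean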;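 note: 0% = cytokine-treated negative control wells and 100% = positive control rescue; higher means more ATP so stronger rescue from cytokine killing; wells of about 40 µL received 100 nL stock; the first replicate is given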
Calb FLC – affects C. albicans growth with fluconazole | C. albicans CaCi-2 (fluconazole-resistant clinical isolate) + fluconazole, Alamar Blue growth, 48 h | growth inhibition, % (concentration not given with the values) | 300,000 tested, 0.57% active | AID 1979;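 active = most replicates above 75%; inconclusive = exactly half above 75%; inactive = most below 75%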;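 note: all wells also contain fluconazole at 8 µg/ml as a sub-toxic cotreatment; 0% = median of DMSO wells and 100% = median of geldanamycin control wells; wells of about 8 µL received 7.5 nL stock; the first replicate is given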
Ecoli rRNA inh – inhibits bacterial ribosomal RNA function over humanized ribosomes; E. coli WT GFP vs humanized-ribosome RFP mutants, fluorescence, 24 h; hits give low values; DMSO median 0, no signal -100; GFP signal change (wild-type ribosome), % (test concentration not listed); 350,000 tested, 1.6% active;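 active = significant combined selectivity score with lowered wild-type GFP, culture density cut under 30%, mutant RFP and density less affected; inactive = any of these conditions unmet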; note: one replicate is shown; some compounds called inactive have numbers as strong as hits
MLL AF4-AF9 inh – blocks AF4 peptide binding to human AF9; AlphaScreen, biotin-AF4 peptide binding to FLAG-AF9; inhibition, % at 10 µM; 350,000 tested, 0.47% active;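 active = every replicate reaching a set inhibition limit, whatever the replicate mean, cut at about 25% in these data; inconclusive = mean inhibition reaches that limit but some replicates miss it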;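 note: 0% = plate neutral control median and 100% = total signal loss; the record names both 10 and 1 µM as test concentration; the first replicate is given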
Target sequence (P42568 whole entry, looked up): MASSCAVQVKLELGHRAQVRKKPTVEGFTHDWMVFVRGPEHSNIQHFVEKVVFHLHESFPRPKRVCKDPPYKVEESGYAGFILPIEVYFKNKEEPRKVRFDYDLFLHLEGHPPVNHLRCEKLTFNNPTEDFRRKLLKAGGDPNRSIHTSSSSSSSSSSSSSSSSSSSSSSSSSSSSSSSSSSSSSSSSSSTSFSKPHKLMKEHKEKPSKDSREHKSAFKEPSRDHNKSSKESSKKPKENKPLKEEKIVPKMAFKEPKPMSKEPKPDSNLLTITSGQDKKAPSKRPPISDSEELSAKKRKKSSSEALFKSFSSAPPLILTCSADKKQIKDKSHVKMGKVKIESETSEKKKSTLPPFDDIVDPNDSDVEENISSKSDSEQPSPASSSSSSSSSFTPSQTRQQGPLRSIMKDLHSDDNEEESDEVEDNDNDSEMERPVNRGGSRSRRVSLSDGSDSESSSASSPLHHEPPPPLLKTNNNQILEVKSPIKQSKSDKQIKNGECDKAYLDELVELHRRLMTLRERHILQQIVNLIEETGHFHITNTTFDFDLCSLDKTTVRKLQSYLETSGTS
Ecoli rRNA inh OD600 – second read-out of Ecoli rRNA inh, no call of its own (marks repeat the call); OD600 change, %; measured here: OD600 growth;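 optical density of the mix in the first replicate; 0 = DMSO median and -100 = no signal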
Ecoli rRNA inh RFP – second read-out of Ecoli rRNA inh, no call of its own (marks repeat the call); RFP signal change, %; measured here: RFP humanized mutant strains;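 first replicate; 0 = DMSO median and -100 = no signal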
An asterisk follows results filed as active.

What do the screens show for `COc1ccc(OC)c(C(=O)c2ccc(C(=O)Nc3ccc4ccccc4c3)cc2)c1`?
Vif TR-FRET: -7%; T cruzi repl: 48; Bfl-1 A1 inh: 0.0; RanGTP-Imp inh: 3.2; Beta cell apopt: 8; Calb FLC: 3

Results for Clc1ccc(-c2nnc3n2-c2ccccc2SC3)cc1 ?
Vif TR-FRET: -4%; T cruzi repl: 1; Bfl-1 A1 inh: 0.9; RanGTP-Imp inh: 1.9; Calb FLC: -1; Ecoli rRNA inh: -16; MLL AF4-AF9 inh: -2.0; Ecoli rRNA inh OD600: -6; Ecoli rRNA inh RFP: -1.4

What do the screens show for `CC1C/C(=N\Nc2ccc(S(N)(=O)=O)cc2[N+](=O)[O-])CC(C)(C)C1` (stereo unspecified)?
Vif TR-FRET: -3%; T cruzi repl: 22; Bfl-1 A1 inh: -0.4; RanGTP-Imp inh: -0.5; Beta cell apopt: 7; Calb FLC: -6

Results for N#Cc1c(-c2cccs2)nc(SCC(=O)c2cccs2)[nH]c1=O ?
Vif TR-FRET: 5%; T cruzi repl: -3; Bfl-1 A1 inh: -0.7; RanGTP-Imp inh: 1.9; Beta cell apopt: -7; Calb FLC: 12

How did Cc1cc(C)c(C(N)=O)c(NC(=O)Nc2ccccc2Cl)n1 do in these assays?
Vif TR-FRET: 31%; T cruzi repl: -14; Bfl-1 A1 inh: -0.2; RanGTP-Imp inh: 0.0; Beta cell apopt: -6; Calb FLC: 31

How did O=C(Cc1cccs1)Nc1nc2ccccc2s1 do in these assays?
Vif TR-FRET: 2%; T cruzi repl: 9; Bfl-1 A1 inh: -3.5; RanGTP-Imp inh: 3.4; Beta cell apopt: 0; Calb FLC: -15

Results for O=C(CCN1C(=O)c2cccc3cccc(c23)C1=O)N1CCN(c2ccccc2F)CC1 ?
Vif TR-FRET: -2%; T cruzi repl: 3; Bfl-1 A1 inh: -0.2; RanGTP-Imp inh: -0.2; Beta cell apopt: 1; Calb FLC: 11

How did COC(=O)C1=C(C)OC(N)=C(C#N)C1c1c(C)nn(-c2ccccc2)c1Cl (stereo unspecified) do in these assays?
Vif TR-FRET: 0%; T cruzi repl: 2; Bfl-1 A1 inh: 0.2; RanGTP-Imp inh: 7.1; Beta cell apopt: 1; Calb FLC: 27

How did CC1CN(C(=O)CNC(=O)Cc2cccc3ccccc23)CC(C)O1 (stereo unspecified) do in these assays?
Bfl-1 A1 inh: -0.2; Beta cell apopt: 1; Ecoli rRNA inh: 1; MLL AF4-AF9 inh: -2.4; Ecoli rRNA inh OD600: 9; Ecoli rRNA inh RFP: -1.4

How did COc1ccc(CCN2CC(C(=O)NCC3(O)CCCCC3)CCC2=O)cc1 (stereo unspecified) do in these assays?
T cruzi repl: -11; Bfl-1 A1 inh: -0.4; RanGTP-Imp inh: 7.6; Beta cell apopt: 3; Calb FLC: -2; Ecoli rRNA inh: 12; MLL AF4-AF9 inh: -0.2; Ecoli rRNA inh OD600: 10; Ecoli rRNA inh RFP: 1.1

Results for O=C(CSc1ccc2c(c1)OCCO2)Nc1ccc(Br)cc1 ?
Vif TR-FRET: -7%; T cruzi repl: 2; Bfl-1 A1 inh: -0.2; RanGTP-Imp inh: -1.9; Beta cell apopt: -10; Calb FLC: -9

How did COc1ccc(NC(=O)C(c2ccc(C)cc2)N(C)C(=O)c2ccc(=O)[nH]c2)cc1 (stereo unspecified) do in these assays?
Vif TR-FRET: 0%; T cruzi repl: -19; Bfl-1 A1 inh: 0.3; RanGTP-Imp inh: -1.5; Beta cell apopt: -3; Calb FLC: -2

How did Cc1ccc2nc(N(CCN(C)C)C(=O)c3ccc4ccccc4c3)sc2c1 do in these assays?
Vif TR-FRET: 0%; T cruzi repl: 26; Bfl-1 A1 inh: 0.3; RanGTP-Imp inh: -0.8; Beta cell apopt: -5; Calb FLC: -2

Results for O=S(=O)(Nc1nc2ccccc2nc1NCC1CCCO1)c1cc(Cl)ccc1Cl (stereo unspecified) ?
Vif TR-FRET: inconclusive; T cruzi repl: -3; Bfl-1 A1 inh: 0.3; RanGTP-Imp inh: -2.1; Beta cell apopt: 7; Calb FLC: 22; Ecoli rRNA inh: -27*; MLL AF4-AF9 inh: 9.6; Ecoli rRNA inh OD600: -19*; Ecoli rRNA inh RFP: 1.3*

What do the screens show for `O=C(Nc1ccc(Cl)cn1)C1CCCN1S(=O)(=O)c1ccccc1` (stereo unspecified)?
Vif TR-FRET: 29%; T cruzi repl: 8; Bfl-1 A1 inh: 1.1; RanGTP-Imp inh: 1.9; Calb FLC: -6

How did CCS(=O)(=O)c1ncc(CO)n1CCc1ccccc1 do in these assays?
T cruzi repl: -23; Bfl-1 A1 inh: 0.3; RanGTP-Imp inh: -3.5; Beta cell apopt: -5; Calb FLC: 35; Ecoli rRNA inh: 15; MLL AF4-AF9 inh: -1.0; Ecoli rRNA inh OD600: 10; Ecoli rRNA inh RFP: 0.8

How did O=C1[C@H]2[C@H]3[C@H](O)[C@H](O)C/C(=N\OC[C@@H](O)COCc4ccco4)[C@@H]3CC[C@H]2C(=O)N1c1ccc(F)cc1F do in these assays?
T cruzi repl: -1; Bfl-1 A1 inh: 2.9; RanGTP-Imp inh: -3.9; Beta cell apopt: -5; Calb FLC: 8

Results for O=C(c1cccc(S(=O)(=O)N2CCCC2)c1)N(Cc1ccco1)C1CCS(=O)(=O)C1 (stereo unspecified) ?
Vif TR-FRET: 31%; T cruzi repl: 5; Bfl-1 A1 inh: 0.7; RanGTP-Imp inh: -2.3; Beta cell apopt: -10; Calb FLC: -1; Ecoli rRNA inh: 14; MLL AF4-AF9 inh: 0.3; Ecoli rRNA inh OD600: 22; Ecoli rRNA inh RFP: 0.5

What do the screens show for `Cc1ccc(C(=O)N/C(=C\c2ccc(F)cc2)C(=O)NCc2ccncc2)cc1`?
Vif TR-FRET: 10%; T cruzi repl: 4; Bfl-1 A1 inh: 0.0; RanGTP-Imp inh: 0.3; Beta cell apopt: 0; Calb FLC: -16

What do the screens show for `CCN(CC)S(=O)(=O)c1cc(NC(=O)COc2ccc(C#N)cc2OC)ccc1C`?
Vif TR-FRET: 25%; T cruzi repl: 6; Bfl-1 A1 inh: 0.4; RanGTP-Imp inh: -4.2; Beta cell apopt: -3; Calb FLC: 1; Ecoli rRNA inh: -28; MLL AF4-AF9 inh: -15; Ecoli rRNA inh OD600: -30; Ecoli rRNA inh RFP: 2.9

What do the screens show for `O=C(COc1ccc(S(=O)(=O)N2CCOCC2)cc1Cl)NC1CCCCC1`?
Vif TR-FRET: -5%; T cruzi repl: 4; Bfl-1 A1 inh: 0.5; RanGTP-Imp inh: -3.4; Beta cell apopt: -3; Calb FLC: 2; Ecoli rRNA inh: 1; MLL AF4-AF9 inh: -1.8; Ecoli rRNA inh OD600: -3; Ecoli rRNA inh RFP: 0.3

Results for CCCCn1c(=O)[nH]c(=O)c2c1nc(-c1ccc(C#N)cc1)n2C1CCCC1 ?
Vif TR-FRET: -1%; T cruzi repl: 6; Bfl-1 A1 inh: -0.6; RanGTP-Imp inh: -1.2; Beta cell apopt: -9; Calb FLC: 2

How did CCSc1nc(-c2ccc(OC)cc2)cc(-c2ccccc2)c1C#N do in these assays?
Vif TR-FRET: -26%; T cruzi repl: 16; Bfl-1 A1 inh: 0.0; RanGTP-Imp inh: 1.1; Beta cell apopt: 24; Calb FLC: -5; Ecoli rRNA inh: 10; MLL AF4-AF9 inh: -6.7; Ecoli rRNA inh OD600: 7; Ecoli rRNA inh RFP: 1.0

Results for CC(On1nnc2ccc(S(=O)(=O)N3CCOCC3)cc21)C(=O)Nc1ccccc1F (stereo unspecified) ?
Vif TR-FRET: 7%; T cruzi repl: 4; Bfl-1 A1 inh: -0.2; RanGTP-Imp inh: -0.3; Beta cell apopt: -4; Calb FLC: -1; Ecoli rRNA inh: 6; MLL AF4-AF9 inh: -0.1; Ecoli rRNA inh OD600: 5; Ecoli rRNA inh RFP: -0.5

What do the screens show for `O=C(Cc1ccsc1)Nc1ccc(S(=O)(=O)C(F)F)cc1`?
Vif TR-FRET: 17%; T cruzi repl: -7; Bfl-1 A1 inh: -0.4; RanGTP-Imp inh: -2.2; Beta cell apopt: -4; Calb FLC: -2; Ecoli rRNA inh: -1; MLL AF4-AF9 inh: -7.0; Ecoli rRNA inh OD600: 3; Ecoli rRNA inh RFP: 0.4

Results for CC(=O)c1ccc(NC(=S)NC(C)CCc2ccccc2)cc1 (stereo unspecified) ?
Vif TR-FRET: -2%; T cruzi repl: 11; Bfl-1 A1 inh: 0.1; RanGTP-Imp inh: 2.6; Beta cell apopt: 2; Calb FLC: -14; Ecoli rRNA inh: -50; MLL AF4-AF9 inh: 11; Ecoli rRNA inh OD600: -75; Ecoli rRNA inh RFP: -22

How did CC1(C(=O)N2CC3(CC(c4cccc(NC(=O)CC(c5ccccc5)c5ccccc5)c4)=NO3)C[C@@H]2C(N)=O)CC1 (stereo partly specified) do in these assays?
Vif TR-FRET: 9%; T cruzi repl: 16; Bfl-1 A1 inh: -1.0; RanGTP-Imp inh: -0.3; Beta cell apopt: -1; Calb FLC: 15; Ecoli rRNA inh: -7; MLL AF4-AF9 inh: 3.1; Ecoli rRNA inh OD600: -12; Ecoli rRNA inh RFP: 14

Results for Cc1ccccc1NC(=O)/C(C#N)=C\c1cc(C)n(-c2ccc(C(=O)O)cc2)c1C ?
Vif TR-FRET: 24%; T cruzi repl: 16; Bfl-1 A1 inh: 1.2; RanGTP-Imp inh: 5.5; Beta cell apopt: -3; Calb FLC: 6; Ecoli rRNA inh: -23*; MLL AF4-AF9 inh: 5.1; Ecoli rRNA inh OD600: -14*; Ecoli rRNA inh RFP: 7.7*

Results for Oc1ccc(-c2csc(Nc3ccccn3)n2)c(O)c1 ?
Vif TR-FRET: -2%; T cruzi repl: 6; Bfl-1 A1 inh: -2.1; RanGTP-Imp inh: 2.4; Beta cell apopt: 15; Calb FLC: 1; Ecoli rRNA inh: -3; MLL AF4-AF9 inh: -0.3; Ecoli rRNA inh OD600: 1; Ecoli rRNA inh RFP: 2.1

What do the screens show for `CCOC(=O)COc1cc(-n2c(=S)[nH]c3cc(OC)c(OC)cc3c2=O)c(Cl)cc1Cl`?
Vif TR-FRET: -5%; T cruzi repl: -9; Bfl-1 A1 inh: 0.9; RanGTP-Imp inh: 3.7; Beta cell apopt: -1; Calb FLC: 42; Ecoli rRNA inh: 1; MLL AF4-AF9 inh: 4.8; Ecoli rRNA inh OD600: -1; Ecoli rRNA inh RFP: -1.7

What do the screens show for `CCC(COC(=O)Nc1cccc(C)c1)NC(=O)OCC(C)C` (stereo unspecified)?
Vif TR-FRET: 14%; T cruzi repl: -2; Bfl-1 A1 inh: -0.4; RanGTP-Imp inh: 4.1; Beta cell apopt: 6; Calb FLC: 2

The list is partial (hit frequency here may not be typical).
